Assay outcomes from PubChem BioAssay.
Autofluor counter: flagged as autofluorescent in microsphere protease counterscreen. compound autofluorescence counterscreen, microsphere flow cytometry; hits give high values. fluorescence intensity (test concentration not listed). 360,000 tested, 3.1% active. AID 624483;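 active = at least 3 SD above the mean of all compounds, about 16000 in these data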;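 also: 100 nL of 1 mM stock went into each well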
* = called active by the depositor; & = joins results of further samples.

CCOC(=O)C(=O)N(C)c1c(CC)nc2c(OCc3cccc(Cl)c3)cccn12
  Autofluor counter: 3871

CCc1ccc(C(O)c2ncc(-c3ccc4ccccc4c3)[nH]2)cc1 (configuration not stated)
  Autofluor counter: 3691

CC(=O)C1=CCC(c2ccc(Cl)cc2)N(S(=O)(=O)c2ccc(C)cc2)C1 (configuration not stated)
  Autofluor counter: 6024&5340

COc1cccc(S(=O)(=O)N(C)C[C@H]2OCc3cn(nn3)CCCC(=O)N([C@H](C)CO)C[C@@H]2C)c1
  Autofluor counter: 3644

NC(Cc1ccc(C(F)(F)F)cc1)c1csc(Nc2ccc(C(=O)c3ccccc3)cc2)n1 (configuration not stated)
  Autofluor counter: 2802

CC(C)C[C@@H](CN1CCC[C@H]1CN1C(=O)C(=O)NC[C@@H]1Cc1ccccc1)N1C[C@H](Cc2ccccc2)N(CCc2ccccc2)C(=O)C1=O
  Autofluor counter: 4945

CC(=O)c1ccc(Nc2nc(C(N)c3ccccc3)cs2)cc1 (configuration not stated)
  Autofluor counter: 3989

Oc1ccc(C[C@H]2CNC(=S)N2C[C@H]2CCCN2C[C@H](Cc2ccccc2)N2C[C@H](Cc3ccc(O)cc3)N(CC3CCCCCC3)C2=S)cc1
  Autofluor counter: 6239

O=C(O)CSc1c(Cl)c(=O)oc2ccc(Cl)cc12
  Autofluor counter: 2880

CC(NC(=O)C1CC(=O)N(c2ccc3c(c2)OCCO3)C1)c1ccccc1 (configuration not stated)
  Autofluor counter: 3022

CC(=O)N1C[C@@H](CO)[C@@H](N(C)C(=O)C2CCCCC2)C[C@H]1c1ccccc1
  Autofluor counter: 4848

O=C(CCC(=O)OCCOc1ccccc1)OCCOc1ccccc1
  Autofluor counter: 6424

CCOC(=O)c1ccc(CN2CCCC(C)(C(=O)NCCOC)C2)cc1 (configuration not stated)
  Autofluor counter: 3464

CC1Cc2ccccc2N1C(=O)COC(=O)c1ccco1 (configuration not stated)
  Autofluor counter: 2806

Cc1ccc(S(=O)(=O)N2C[C@H]3N(C(=O)OC(C)C)N(C(=O)OC(C)C)C[C@H](OC(=O)NC4CC4)[C@@]3(O)C2)cc1
  Autofluor counter: 3902

CCc1nc2ccc(C(=O)N3CCN(c4ccccc4)CC3)cn2c1N(CCC(C)C)CCN(C)C
  Autofluor counter: 4010

Cc1cccc(-c2cc(NC=O)c3ncc(-c4cccc(C(=O)N(C)C)c4)n3c2)c1
  Autofluor counter: 4145

CC(C)Cn1cc(-c2cncc3nccn23)cn1
  Autofluor counter: 4097

NC(=O)C1CCN(CC(=O)Nc2ccc3c(c2)OCO3)CC1
  Autofluor counter: 2969

COc1ccc(S(=O)(=O)N2CCC(C(=O)N[C@H](C(=O)NCc3ccccc3)C(C)C)CC2)cc1
  Autofluor counter: 2989

Cc1ccc(C(c2nc3ccccc3[nH]2)n2c(-c3ccccc3)nc3ccccc32)cc1 (configuration not stated)
  Autofluor counter: 5351

COCCn1c(=S)[nH]c2cc(C(=O)NC3CCCC(C)C3C)ccc2c1=O (configuration not stated)
  Autofluor counter: 2913

N#CC(C(O)c1ccccc1)N1CCOCC1 (configuration not stated)
  Autofluor counter: 3645

CCC(=O)N1CCC1(C)C(=O)Nc1cccc2c1CCCC2 (configuration not stated)
  Autofluor counter: 2827

COc1cc(/C=C/CNC[C@H]2O[C@@H](n3ccc(N)nc3=O)[C@H](O)[C@@H]2O)ccc1O
  Autofluor counter: 3788

O=C1Nc2ccccc2SC1=Cc1ccccc1
  Autofluor counter: 2855

CCOC(=O)[C@]12Cc3c(cc(OC)c(OC)c3OC)[C@H]1N(C)C(=O)c1ccccc12
  Autofluor counter: 5879

COc1ccc(N2CCCC2=O)cc1S(=O)(=O)N1CCOCC1
  Autofluor counter: 3739

C=CCNc1nc(NCc2ccc(N(C)C)cc2)c2sc(-c3ccccc3)cc2n1
  Autofluor counter: 3363

CC1(c2nnnn2Cc2ccccc2)CCC(=O)N1CCCn1ccnc1 (configuration not stated)
  Autofluor counter: 4226

Shown with tabs: 4 of the compounds above.
Structure	Autofluor counter
Cc1ccc(C(c2nc3ccccc3[nH]2)n2c(-c3ccccc3)nc3ccccc32)cc1 (configuration not stated)	5351
COCCn1c(=S)[nH]c2cc(C(=O)NC3CCCC(C)C3C)ccc2c1=O (configuration not stated)	2913
N#CC(C(O)c1ccccc1)N1CCOCC1 (configuration not stated)	3645
CCC(=O)N1CCC1(C)C(=O)Nc1cccc2c1CCCC2 (configuration not stated)	2827

Later entries.
COc1cccc(C(c2nnnn2C2CCCCC2)N2CCN(C/C=C/c3ccccc3)CC2)c1OC (configuration not stated)
  Autofluor counter: 4448

COc1ccc(C(=O)NC2CC(C)(C)NC(C)(C)C2)cc1S(=O)(=O)N1CCOCC1
  Autofluor counter: 3813

CCc1nc2ccc(C(=O)NCCc3ccccn3)cn2c1N(C)Cc1nccs1
  Autofluor counter: 3766

COCCCn1cc(CN2CC(N3CCN(CCO)CC3)CS2(=O)=O)nn1 (configuration not stated)
  Autofluor counter: 5986

C[n+]1ccc2[nH]c3ccccc3c2c1
  Autofluor counter: 5833

COc1ccccc1C(=O)N1CCN(C(=O)[C@H]2O[C@@H](n3ccc(N)nc3=O)[C@H](O)[C@@H]2O)CC1
  Autofluor counter: 4101

CCc1ccc(C(O)c2ncc(-c3ccccc3C)[nH]2)cc1 (configuration not stated)
  Autofluor counter: 2840

Fc1cccc(Cc2c(-c3ccccc3)nc3c(Cl)cc(C(F)(F)F)cn23)c1
  Autofluor counter: 7362

CNc1nc(Oc2cccc(NC(C)=O)c2)c2sccc2n1
  Autofluor counter: 3673

COc1ccc(OC)c(CN2CCN(Cc3ccc(OC)c(OC)c3OC)CC2)c1
  Autofluor counter: 3836

COCCN1C(=O)CCC1(C)c1nnnn1-c1ccc2c(c1)OCCO2 (configuration not stated)
  Autofluor counter: 6077

CCCCNC(=O)C1(C)CCCCN1C(=O)c1cncc(Br)c1 (configuration not stated)
  Autofluor counter: 3817

C(=C\c1ccccc1)/CN1CCN(C(CCc2ccccc2)c2nnnn2C2CCCCC2)CC1 (configuration not stated)
  Autofluor counter: 6134

O=C(NC1CCCCC1)OC1CC2CC1[C@H]1CCCCN1C2=O (some centres not stated)
  Autofluor counter: 6392

COCCCNC1=C(C#N)C(=O)NC2(CCCC2)S1
  Autofluor counter: 4065

CC1CC(C)CN(C(C(=O)NC2CCCCC2)c2cc3ccccc3o2)C1 (configuration not stated)
  Autofluor counter: 4376

O=S(=O)(c1cccc2ccccc12)N1CCC2CC1c1cc(-c3ccc4c(c3)OCO4)ccc12 (configuration not stated)
  Autofluor counter: 5932

CN1CCN(C2CN(Cc3cn(Cc4cccc(C(F)(F)F)c4)nn3)S(=O)(=O)C2)CC1 (configuration not stated)
  Autofluor counter: 6360

CN(Cc1ccncc1)C(=O)[C@@H]1CCCN1C(=O)[C@@H]1CCCN1
  Autofluor counter: 4668

Cc1ccc(S(=O)(=O)N2C[C@H]3C(=O)C[C@@H](c4ccccc4)N(S(=O)(=O)c4ccc(C)cc4)[C@H]3C[C@H]2c2ccccc2Cl)cc1
  Autofluor counter: 5536

Cc1ccc(S(=O)(=O)CCC(=O)OCCOc2ccc(Br)cc2)cc1
  Autofluor counter: 3519

CCCc1cc(CN(C)C(=O)c2ccc(OC3CCN(C(C)=O)CC3)c(OC)c2)[nH]n1
  Autofluor counter: 3917

O=S1(=O)CC(N2CCN(CCO)CC2)CN1Cc1cn(Cc2cccc(C(F)(F)F)c2)nn1 (configuration not stated)
  Autofluor counter: 6125

CSCCC(c1nnnn1-c1ccc2c(c1)OCCO2)N1CCC(n2c(=O)[nH]c3ccccc32)CC1 (configuration not stated)
  Autofluor counter: 5697

CCC(c1nnnn1-c1ccc2c(c1)OCCO2)N1CCN(CC)CC1 (configuration not stated)
  Autofluor counter: 5814

COc1ccc(NC(=O)C2CCCN2S(=O)(=O)c2ccc3c(c2)C(C)(C)C(=O)N3C)cc1 (configuration not stated)
  Autofluor counter: 5877

CC(=O)NC(c1cccc(F)c1)c1nc(-c2ccc(C)c(C)c2)cs1 (configuration not stated)
  Autofluor counter: 4009

CC1(C(=O)NS(=O)(=O)c2ccc(F)cc2F)CCN1C(=O)C1CCCCC1 (configuration not stated)
  Autofluor counter: 2858

CCN(CC)Cc1cc(Oc2ccc(O)c(CN(CC)CC)c2)ccc1O
  Autofluor counter: 4455

Cc1ccccc1S(=O)(=O)NC(=O)C1(C)CCN1C(=O)CCc1ccc(Cl)cc1Cl (configuration not stated)
  Autofluor counter: 2810

O=C(OCc1ccc(Br)cc1)c1cc([N+](=O)[O-])ccc1N1CCOCC1
  Autofluor counter: 3458

Cc1ccsc1CNC(=O)C1(C)CCCN1CC(C)C (configuration not stated)
  Autofluor counter: 5021

OC[C@@H]1CN(Cc2ccc3c(c2)OCO3)C[C@H](n2cnc3c(NCc4ccc(F)cc4)ncnc32)O1
  Autofluor counter: 3181

O=C1c2ccccc2C(c2nnnn2Cc2ccccc2)N1Cc1cccnc1 (configuration not stated)
  Autofluor counter: 4635

C=CCN(CC=C)Cc1cc(=O)oc2ccc3ccccc3c12
  Autofluor counter: 6060

Cn1ccc2c(-c3ccc(C(N)=O)cc3)cc3c(c21)C1CCC3O1 (configuration not stated)
  Autofluor counter: 5374

COc1cc(C=NCc2ccccc2)ccc1O
  Autofluor counter: 3997

COCCNC(=O)C1(C)CCCN(Cc2ccc(OC)cc2)C1 (configuration not stated)
  Autofluor counter: 3411

COc1ccc(NC(=O)c2ccc3c(c2)CCN3S(C)(=O)=O)cc1
  Autofluor counter: 2906

CCCCCc1c(-c2ccc(F)cc2)ncn1CCc1ccccc1OC
  Autofluor counter: 4488

CCOC(=O)C1(C)CCCCCN1C(=O)c1csnn1 (configuration not stated)
  Autofluor counter: 3742

CC1(C)Cc2cccc(OC(=O)NC3CCCCC3)c2O1
  Autofluor counter: 5605

C[C@H]1CN([C@@H](C)CO)S(=O)(=O)c2ccc(Br)cc2O[C@H]1CN(C)C(=O)C1CCC1
  Autofluor counter: 4337

CN(C)S(=O)(=O)n1cc(/C=C(\NC(=O)c2ccccc2F)C(=O)N2CCCCC2)c2ccccc21
  Autofluor counter: 3062

CCc1nc2ccc(C(=O)NCC3CCCCC3)cn2c1N(C)C(=O)c1cccc(OC)c1
  Autofluor counter: 3936

O=C(NCCc1ccccc1)c1ccc(-c2ccc(F)c(F)c2)c2ccoc12
  Autofluor counter: 3592

O=C(NCc1ccc(Cl)c(Cl)c1)c1cc(C2CCCCN2C(=O)c2ccccc2)on1 (configuration not stated)
  Autofluor counter: 4211

COc1ccc(NC(=O)C2Cc3c(-c4ccc5c(c4)OCO5)ccnc3O2)cc1 (configuration not stated)
  Autofluor counter: 3553

COc1ccc(-c2cnc3c(NC(C)=O)cc(-c4cccc(C(=O)N(C)C)c4)cn23)cc1OC
  Autofluor counter: 3380

O=C(COC(=O)c1cncc(Br)c1)NC12CC3CC(CC(C3)C1)C2
  Autofluor counter: 4039

CCc1nc2ccc(C(=O)NCCNC(C)=O)cn2c1N(CCC(C)C)CCN(C)C
  Autofluor counter: 4061

O=C(Nc1ccccc1Cl)c1cc(C2CCCCN2C(=O)c2ccccc2)on1 (configuration not stated)
  Autofluor counter: 4013

C[C@@H]1CN([C@H](C)CO)C(=O)CCCn2cc(nn2)CO[C@H]1CN(C)C(=O)Nc1ccccc1C(F)(F)F
  Autofluor counter: 3749

O=c1[nH]c2ccccc2n1C1CCN(C(c2ccnc3ccccc23)c2nnnn2-c2ccc3c(c2)OCCO3)CC1 (configuration not stated)
  Autofluor counter: 5481

CC(=O)Nc1ccc(-c2ccnc3c2CC(C)(C(=O)NCc2ccncc2)O3)cc1 (configuration not stated)
  Autofluor counter: 3038

CC1(C(=O)Nc2cccc3cccnc23)CCN1C(=O)Cc1ccc(Cl)cc1Cl (configuration not stated)
  Autofluor counter: 3708

COc1ccc(N(CC(=O)Nc2ccc(S(=O)(=O)N3CCOCC3)cc2)S(C)(=O)=O)cc1OC
  Autofluor counter: 3298

COc1cc(Br)cc(C(=O)N2CCc3ccccc32)c1OC
  Autofluor counter: 3537

CCC(=O)N(c1nnc(SC(C)C(=O)Nc2ccc(N3CCOCC3)cc2)s1)C1CC1 (configuration not stated)
  Autofluor counter: 3532

c1cc(-c2ccc3nncn3c2)ccc1CN1CCOCC1
  Autofluor counter: 3033

Of the compounds above, 4 contain two or more sulfur atoms:
Oc1ccc(C[C@H]2CNC(=S)N2C[C@H]2CCCN2C[C@H](Cc2ccccc2)N2C[C@H](Cc3ccc(O)cc3)N(CC3CCCCCC3)C2=S)cc1
  Autofluor counter: 6239

Cc1ccc(S(=O)(=O)N2C[C@H]3C(=O)C[C@@H](c4ccccc4)N(S(=O)(=O)c4ccc(C)cc4)[C@H]3C[C@H]2c2ccccc2Cl)cc1
  Autofluor counter: 5536

COc1ccc(N(CC(=O)Nc2ccc(S(=O)(=O)N3CCOCC3)cc2)S(C)(=O)=O)cc1OC
  Autofluor counter: 3298

CCC(=O)N(c1nnc(SC(C)C(=O)Nc2ccc(N3CCOCC3)cc2)s1)C1CC1 (configuration not stated)
  Autofluor counter: 3532

(more compounds)
CSc1ccccc1-c1ccc2nccn2c1
  Autofluor counter: 3112

COc1cccc(NC(=O)COC(=O)c2ccc3c(c2)OCCO3)c1
  Autofluor counter: 2852

COC(=O)c1cc(=O)c2c(ccc3oc(=O)ccc32)[nH]1
  Autofluor counter: 5174

CCCCC(c1nc2ccccc2[nH]1)n1c(=O)c(-c2ccccc2)nc2cc(C)c(C)cc21 (configuration not stated)
  Autofluor counter: 3875

OCCN1CCN(c2ncnc3c2ncn3[C@H]2CN(Cc3cccc(C(F)(F)F)c3)C[C@@H](CO)O2)CC1
  Autofluor counter: 3786

C=C(C)Cn1c2ccc(NC(=O)CCOCC)cc2c(=O)n1C
  Autofluor counter: 3674

C[C@@H]1CN([C@@H](C)CO)C(=O)CCCn2nncc2CO[C@@H]1CN(C)S(=O)(=O)c1ccc(-c2ccccc2)cc1
  Autofluor counter: 3912

CCCCNC(=O)C1(C)CCCCN1C(=O)c1cc(-c2ccccc2)cs1 (configuration not stated)
  Autofluor counter: 3593

CN1CCC(N2CCN(C3CN(Cc4cn(Cc5ccc(F)cc5)nn4)S(=O)(=O)C3)CC2)CC1 (configuration not stated)
  Autofluor counter: 5829

CCc1nc2ccc(C(=O)NCCCN3CCCC3=O)cn2c1N(CC)Cc1cccc(Br)c1
  Autofluor counter: 3494

CC(=O)Nc1cc(-c2cccnc2)cn2c(-c3cccc(C(F)(F)F)c3)cnc12
  Autofluor counter: 3581

Some of the compounds tested; rates above refer to the full screens.
